Screens: PubChem, ICCB-Longwood Screening Facility, Harvard Medical School
GIV Gai3 FP: blocks GIV peptide binding to rat Galpha-i3; Galpha-i3/FITC-GIV peptide fluorescence polarization, 90 min; active compounds read low; scaled: aluminum fluoride 0%, vehicle 100%; actives 0.42% (n = 210,000); percent of control (FP), % (concentration not given with the values); P08753;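 active = replicate mean at 85% of control or lower, very high polarization wells dropped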;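 note: wells of about 15 µL received 100 nL stock; the first replicate is given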
Target sequence (P08753 whole entry, looked up): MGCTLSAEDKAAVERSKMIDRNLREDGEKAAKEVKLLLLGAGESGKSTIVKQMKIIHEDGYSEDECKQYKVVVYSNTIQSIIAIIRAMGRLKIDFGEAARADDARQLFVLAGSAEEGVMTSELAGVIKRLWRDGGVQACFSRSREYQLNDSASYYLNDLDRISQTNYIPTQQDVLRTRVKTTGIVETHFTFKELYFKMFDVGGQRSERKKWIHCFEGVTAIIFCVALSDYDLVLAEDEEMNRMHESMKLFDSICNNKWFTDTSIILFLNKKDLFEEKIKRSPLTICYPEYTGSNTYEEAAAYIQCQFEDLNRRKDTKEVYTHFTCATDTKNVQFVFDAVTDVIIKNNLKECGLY
Sa growth 42C: S. aureus growth inhibition. S. aureus RN4220 growth, OD600, 20 h, 42 °C; active compounds read low. relative growth, % (no concentration beside the values). actives 0.53% (n = 170,000). AID 720641;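 active = growth at 42 °C up to 50% and 20 or more points under that at 30 °C, or under 10% at both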;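 note: 300 nL library stock went into each well; scaled to the means of positive and negative controls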
HCMV UL50-53 inh: disrupts HCMV UL50-UL53 complex binding. HTRF UL50-UL53 interaction, normalized percent inhibition. inhibition, % (no concentration beside the values). actives 0.15% (n = 190,000). AID 1918969;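 active = both replicates at 50% or more, plus weaker picks with an unusually low signal ratio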;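 note: stock transfer was 100 nL into about 20 µL; 0% = negative control wells and 100% = wells with untagged competitor protein; inactives centre near -12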
Sa growth 42C second temp: recorded beside Sa growth 42C, whose call it bears; relative growth, %; measured here: growth at 30 °C;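 optical density after 20 h as mean of two plates; 100% = untreated growth and lower means inhibition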
Starred values were filed as active, the others as inactive; . = not tested or not shown; & = joins results of further samples. This is a random part of the collection (roughly 0.83% active in at least one column).

SMILES | GIV Gai3 FP | Sa growth 42C | Sa growth 42C second temp | HCMV UL50-53 inh
O=C(CC1SC2=NCCN2C1=O)Nc1ccccc1 (stereo unspecified) | 99 | 104 | 88 | .
Cc1ccc(S(=O)(=O)N2CCC(c3c(C)n(CC(=O)N4CCCC4)c4ccccc34)CC2)cc1C | 103 | 107 | 90 | .
Cc1ccc(NC(=O)COc2ccc(-c3nn(C)c(=O)c4ccccc34)cc2)c(C)c1 | 102 | 99 | 95 | -30
COC(=O)c1nn(-c2ccccc2)c(=O)c2c(N)sc(C)c12 | 97 | 98 | 80 | -77
COc1ccc(OC)c(NS(=O)(=O)c2cc(N3C(=O)CCS3(=O)=O)ccc2OC)c1 | 102 | . | . | -19
O=C(CN1CCN(C(=O)C2CCCO2)CC1)Nc1cc(C(F)(F)F)ccc1Cl (stereo unspecified) | 101 | 95 | 103 | -12
O=C(O)c1cc2[nH]c3c(c2cc1Cl)CCCC3 | . | 91 | 93 | -7
CCOc1ccc(N2C(=O)CC(N3CCCCC3CC)C2=O)cc1 (stereo unspecified) | 95 | 101 | 92 | -13
Cc1ccc2c(Cl)c(C(=O)Nc3nc4c(s3)CC(C)CC4)sc2c1 (stereo unspecified) | 102 | . | . | -6
CN1C(=O)Cc2cc(S(=O)(=O)NCc3ccccc3Cl)ccc21 | 102 | 111 | 96 | .
Cc1cc(C)n(-c2ccc(C(F)(F)F)cc2)n1 | 100 | 105 | 112 | -1
O=C(CCN1C(=O)c2ccccc2C1=O)OCC(=O)c1ccc2c(c1)OCCO2 | . | 100 | 91 | -36
CCOc1cc(C(=O)OCC(=O)Nc2cccc(C)c2)ccc1OCC(=O)N1CCOCC1 | . | 86 | 92 | -15
CC(C#N)Sc1ncnc2ccccc12 (stereo unspecified) | . | 88 | 82 | -14
Cc1ccc(NC(=O)Cn2c(-c3ccccc3Cl)nc3sc(C)c(C)c3c2=O)cc1Cl | 100 | . | . | -25
Cc1cc(C)nc(/N=C(\N)Nc2ccccc2)n1 | 104 | 97 | 89 | .
O=C(COc1ccccc1F)Nc1cccnc1 | . | 117 | 80 | -34
COc1cccn(Cc2nnc(SCC(=O)c3ccccc3)o2)c1=O | 100 | 100 | 94 | -14
Cc1nc(SCCC(=O)O)c2oc3ccccc3c2n1 | 99 | 106 | 85 | .
COc1ccc(-c2nc3n(c2C(=O)NCC2CCCO2)CCS3(=O)=O)cc1 (stereo unspecified) | 106 | . | . | -22
Cc1cc(C(=O)COC(=O)c2nccnc2N)c(C)n1C | . | 94 | 97 | -62
CCOC(=O)c1c(S(=O)(=O)N2CCC(C(=O)Nc3ccc(OCC)cc3)CC2)c(C)n(C)c1C | 106&102 | 107 | 104 | .
CC(C)Oc1ccc(CNCCC(c2ccccc2)c2ccco2)cc1 (stereo unspecified) | 101 | 95 | 79 | .
OCn1c2ccccc2c2cc(Cl)ccc21 | 99 | 39 | 52 | -14
CN(C)Cc1coc2ccccc2c1=O | 99 | 105 | 84 | 3

3 of the entries above in order of the GIV Gai3 FP value, ascending.
SMILES	GIV Gai3 FP
COC(=O)c1nn(-c2ccccc2)c(=O)c2c(N)sc(C)c12	97
OCn1c2ccccc2c2cc(Cl)ccc21	99
COc1ccc(OC)c(NS(=O)(=O)c2cc(N3C(=O)CCS3(=O)=O)ccc2OC)c1	102

More entries:
SMILES | GIV Gai3 FP | Sa growth 42C | Sa growth 42C second temp | HCMV UL50-53 inh
CN(C)c1ccc(C(CNS(=O)(=O)c2ccc(Br)cc2)N2CCCC2)cc1 (stereo unspecified) | 99 | 92 | 93 | .
COc1ccc(OC)c(Nc2c3c(nc4ccccc24)CCC3)c1 | 107 | 104 | 77 | -14
O=C(CN1CCN(Cc2ccc(Cl)cc2)C1=O)NCc1ccc(F)cc1 | 102 | 104 | 100 | .
CC(C)c1ccc(NC(=O)c2cccn2-c2nnc(N3CCCCC3)s2)cc1 | 96 | 92 | 93 | .
O=C(Cn1c(=O)n(Cc2nc(-c3ccccc3)no2)c(=O)c2cc3c(cc21)OCO3)Nc1ccccc1C(F)(F)F | 99 | 99 | 58 | -28
O=C(CO/N=C\c1ccccc1)Nc1ccccc1C(=O)O | 102 | 111 | 91 | -14
Oc1ccccc1-c1nnc(-c2ccccc2)c(-c2ccccc2)n1 | . | 78 | 75 | -28
O=C1c2ccccc2C(=O)N1CC1COc2ccccc2O1 (stereo unspecified) | 108 | 87 | 97 | 10
NC(=O)C1CCCN(S(=O)(=O)c2ccc(Cl)cc2)C1 (stereo unspecified) | . | 117 | 90 | 4
O=C(c1cnc2n(c1=O)CCS2)N1CCN(C(c2ccccc2)c2ccc(Cl)cc2)CC1 (stereo unspecified) | 100 | 88 | 56 | -15
Cc1ccc(N2CC(C(=O)N3CCCCC3)CC2=O)cc1 (stereo unspecified) | 98 | 91 | 91 | -6
COc1ccc(N=Cc2ccc(Cl)cc2)cc1OC | . | 85 | 84 | -13
CC(C)(C)C(=O)Nc1ccc(-c2nc3ccccc3s2)cc1 | 99 | 102 | 89 | -21
CCn1c(C(=O)OC)cc2oc(C)cc21 | 98&104 | 84 | 87 | -20&-16
COCCNC(=O)c1ccccc1NC(=O)c1ccc(F)cc1 | 104 | 107 | 89 | 0
CC1CCc2nc(NC(=O)c3sc4ccccc4c3Cl)sc2C1 (stereo unspecified) | 106 | . | . | 3
CCOC(=O)c1noc2ncnc(Nc3cccc(Cl)c3)c12 | 103 | . | . | -26
Cc1ccc(C2C3=C(CCCC3=O)Nc3ccccc3N2C(=O)C(C)C)cc1 (stereo unspecified) | 95 | . | . | -17
CC(C)(C)N(Cc1ccccc1)C(=O)CCCN1C(=O)/C(=C/c2cccs2)SC1=S | 111 | 75 | 89 | .
CCOc1ccc(NC(=O)c2c(NCc3cccs3)sc3c2CCC(C)C3)cc1 (stereo unspecified) | 108 | 86 | 97 | .
CN1CCC(NCc2ccccc2Cl)CC1 | . | 80 | 95 | 0
O=C(OC(c1ccco1)c1nccc2ccccc12)c1ccccc1 (stereo unspecified) | 103 | 90 | 85 | -36
COc1ccc(Cl)cc1NC(=O)c1c(-c2ccc(C)cc2)nnc2ccccc12 | 100 | . | . | -23
Cc1occc1-c1nnc(SCC(=O)NCC2CCCO2)o1 (stereo unspecified) | 103 | . | . | -22
O=C(NC1CCCCCCC1)c1cccn2c(=O)c3cc(Br)ccc3nc12 | 105 | 109 | 83 | .

The results go on:
SMILES | GIV Gai3 FP | Sa growth 42C | Sa growth 42C second temp | HCMV UL50-53 inh
NC(=O)C1CCN(C(=O)CSc2ncccn2)CC1 | 105 | 90 | 87 | .
CN(C)C(=O)c1c(-c2ccc(F)cc2)nc2n1CCS2(=O)=O | 108 | . | . | 3
O=S(=O)(N/N=C/C1=C(N2CCOCC2)C(=C\c2ccccc2)/CC1)c1ccccc1 | . | 104 | 94 | -39
COc1cc(OC)c(NC(=O)COCc2cc(-c3cccs3)on2)cc1Cl | 96 | 102 | 89 | .
CCOc1ccc(NC(=O)c2ccc3c(c2)N(C)CCS3)cc1 | 106 | 101 | 88 | 2
Cc1c2cnn(-c3ccccc3)c(=O)c2c(C)n1CC(=O)Nc1ccccc1Br | 106 | 112 | 86 | -32
O=C(NC1CC1)c1cc(-c2cccs2)n(C2CCS(=O)(=O)C2)n1 (stereo unspecified) | 96 | . | . | -5
N=C1C(c2nc3ccccc3c(=O)[nH]2)=C(O)CN1Cc1ccccc1 | 110 | 83 | 76 | -4
CCC1CCCCN1C(=O)Cn1c(=O)n(-c2ccc(Cl)c(Cl)c2)c(=O)c2c(C)c(C(=O)N(C)C)sc21 (stereo unspecified) | 96 | 78 | 71 | .
CC(C)c1ccc(Nc2nnns2)cc1 | 99 | 85 | 46 | -12
O=C(NC1CCCCC1)c1ccc(N2CC3CC(C2)c2cccc(=O)n2C3)c(NS(=O)(=O)c2ccc(F)cc2)c1 (stereo unspecified) | 104 | 102 | 88 | -13
COc1ccc(-c2nsc(SCC(=O)c3ccc(Cl)cc3)n2)cc1 | 103 | 86 | 81 | .
O=C(c1ccc2c(c1)N(Cc1cccc(Cl)c1)C(=O)c1ccccc1S2=O)N1CCCCC1 (stereo unspecified) | 102 | 105 | 97 | 17
COc1cccc(N2C(=O)CC(Sc3nnc(C)s3)C2=O)c1 (stereo unspecified) | 105 | 78 | 36 | -14
COc1cc(CO)cc(Cl)c1OCC(N)=O | 106 | 109 | 99 | -6
O=S(=O)(Cc1ccccc1)NNc1ccccc1 | 110 | 98 | 94 | 1
CCOC(=O)c1ccc(NC(=O)CSc2nc(NC(=O)c3ccccc3)c3c(C)c(C)oc3n2)cc1 | 100 | 93 | 68 | -3
C#CCSc1nccc(-c2cc(-c3ccc(Cl)cc3)no2)n1 | 100 | 93 | 83 | -12
CCC(CC)C(=O)N1c2ccccc2CCc2ccccc21 | 108 | 69 | 86 | .
O=C(c1csc2c1CCCC2)N1CCc2ccccc21 | 104 | 106 | 88 | .
O=C(NCCO)c1cccc(Cl)c1 | . | 112 | 79 | -3
COC(=O)c1c(NC(=O)C2c3ccccc3Oc3ccccc32)sc2c1CCC(C)C2 (stereo unspecified) | 102 | 111 | 98 | 0
Cc1cc(=O)[nH]c(SCc2nc(-c3ccccc3C)oc2C)n1 | 104 | . | . | -33
Cc1ccc(NC(=O)CSCc2cnn(-c3ccccc3)c2-n2cccc2)c(C)c1 | 105 | 87 | 79 | 0
Cc1nn(-c2ccccc2)c(OC(=O)c2ccc(Cl)cc2)c1S(=O)(=O)c1ccccc1 | 102 | 111 | 84 | -11

For convenience, 19 of the compounds above:
SMILES | GIV Gai3 FP | Sa growth 42C | Sa growth 42C second temp | HCMV UL50-53 inh
O=C(NC1CC1)c1cc(-c2cccs2)n(C2CCS(=O)(=O)C2)n1 (stereo unspecified) | 96 | . | . | -5
N=C1C(c2nc3ccccc3c(=O)[nH]2)=C(O)CN1Cc1ccccc1 | 110 | 83 | 76 | -4
CCC1CCCCN1C(=O)Cn1c(=O)n(-c2ccc(Cl)c(Cl)c2)c(=O)c2c(C)c(C(=O)N(C)C)sc21 (stereo unspecified) | 96 | 78 | 71 | .
CC(C)c1ccc(Nc2nnns2)cc1 | 99 | 85 | 46 | -12
O=C(NC1CCCCC1)c1ccc(N2CC3CC(C2)c2cccc(=O)n2C3)c(NS(=O)(=O)c2ccc(F)cc2)c1 (stereo unspecified) | 104 | 102 | 88 | -13
COc1ccc(-c2nsc(SCC(=O)c3ccc(Cl)cc3)n2)cc1 | 103 | 86 | 81 | .
O=C(c1ccc2c(c1)N(Cc1cccc(Cl)c1)C(=O)c1ccccc1S2=O)N1CCCCC1 (stereo unspecified) | 102 | 105 | 97 | 17
COc1cccc(N2C(=O)CC(Sc3nnc(C)s3)C2=O)c1 (stereo unspecified) | 105 | 78 | 36 | -14
COc1cc(CO)cc(Cl)c1OCC(N)=O | 106 | 109 | 99 | -6
O=S(=O)(Cc1ccccc1)NNc1ccccc1 | 110 | 98 | 94 | 1
CCOC(=O)c1ccc(NC(=O)CSc2nc(NC(=O)c3ccccc3)c3c(C)c(C)oc3n2)cc1 | 100 | 93 | 68 | -3
C#CCSc1nccc(-c2cc(-c3ccc(Cl)cc3)no2)n1 | 100 | 93 | 83 | -12
CCC(CC)C(=O)N1c2ccccc2CCc2ccccc21 | 108 | 69 | 86 | .
O=C(c1csc2c1CCCC2)N1CCc2ccccc21 | 104 | 106 | 88 | .
O=C(NCCO)c1cccc(Cl)c1 | . | 112 | 79 | -3
COC(=O)c1c(NC(=O)C2c3ccccc3Oc3ccccc32)sc2c1CCC(C)C2 (stereo unspecified) | 102 | 111 | 98 | 0
Cc1cc(=O)[nH]c(SCc2nc(-c3ccccc3C)oc2C)n1 | 104 | . | . | -33
Cc1ccc(NC(=O)CSCc2cnn(-c3ccccc3)c2-n2cccc2)c(C)c1 | 105 | 87 | 79 | 0
Cc1nn(-c2ccccc2)c(OC(=O)c2ccc(Cl)cc2)c1S(=O)(=O)c1ccccc1 | 102 | 111 | 84 | -11

The listing continues.
SMILES | GIV Gai3 FP | Sa growth 42C | Sa growth 42C second temp | HCMV UL50-53 inh
COC(=O)c1cc(-c2cccn2C)n[nH]1 | 103 | . | . | -7
O=C(NCC(=O)c1cccs1)c1ccc(-c2ccccc2F)o1 | 107 | 149 | 124 | -15
CC(=O)Nc1ccc(S(=O)(=O)NC2(C(F)(F)F)NC(=O)N(c3ccc(Cl)cc3)C2=O)cc1 (stereo unspecified) | 102 | 86 | 91 | -15
O=C(O)/C=C/C(=O)N1CCN(S(=O)(=O)c2ccccc2)CC1 | . | 104 | 83 | -13
Nc1ccc2nc(NC(=O)C34CC5CC(CC(C5)C3)C4)sc2c1 | 103 | 20 | 1 | .
Cc1nc(Cc2nnc(SC(C)c3nc4scc(-c5ccccc5)c4c(=O)[nH]3)o2)cs1 (stereo unspecified) | . | 108 | 89 | -16
O=C(O)C1CC(c2ccccc2O)=NO1 (stereo unspecified) | 106 | 99 | 84 | .
CCC(=O)Oc1ccc2c(c1)nc(C)n2CC | 104 | 114 | 96 | -8
N#Cc1c(N)nc(SCC(=O)OCc2ccccc2)c(C#N)c1-c1ccc(O)cc1 | 101 | . | . | -2
CCN=C1S/C(=C\c2ccc(N3CCOCC3)cc2C)C(=O)N1CC | 110 | 115 | 98 | -17
O=c1c2ccccc2c(-c2ccc(F)cc2)nn1CCO | 102 | 84 | 86 | -30
C=CCn1c(C)cc(C(=O)COC(=O)c2ccc(N3CCCC3=O)cc2)c1C | . | 81 | 94 | -29
